Assay outcomes from PubChem BioAssay.
D2 agonist: Beta-Arrestin HTS for Positive Allosteric Modulators of the Human D2 Dopamine Receptor: Agonists; activation, % (test concentration not listed); AID 624465, 2012; actives 0.084% (n = 360,000); DiscoveRx PathHunter D2 beta-arrestin, luminescence, 90 min; 100% = 57 uM dopamine signal; D(2) dopamine receptor (Homo sapiens), P14416; in the data active = activation above about 40%; inconclusive = about 15% to 40%; inactive = below about 15%; also: compound concentration not given in the record; the text of the record calls up to 30% inactive
Target sequence (P14416 whole entry, looked up): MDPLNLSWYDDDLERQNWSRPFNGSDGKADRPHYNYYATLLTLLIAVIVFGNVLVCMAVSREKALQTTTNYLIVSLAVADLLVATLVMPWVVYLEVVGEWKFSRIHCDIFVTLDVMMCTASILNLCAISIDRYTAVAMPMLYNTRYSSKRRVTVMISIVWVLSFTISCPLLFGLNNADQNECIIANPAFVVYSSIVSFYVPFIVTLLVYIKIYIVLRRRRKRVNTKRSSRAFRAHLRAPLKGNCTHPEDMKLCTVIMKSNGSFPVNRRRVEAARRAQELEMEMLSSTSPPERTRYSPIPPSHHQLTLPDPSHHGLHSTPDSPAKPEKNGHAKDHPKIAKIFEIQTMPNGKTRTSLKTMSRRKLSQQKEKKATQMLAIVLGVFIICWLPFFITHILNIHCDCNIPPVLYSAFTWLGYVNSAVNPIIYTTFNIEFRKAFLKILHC
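DiscoveRx PathHunter D2 beta-arrestin cells (2,100/well) attached overnight, then compound-stimulated 90 min at 37 C in HBSS/10 mM HEPES/0.1% Tween-20 buffer; beta-galactosidase complementation read by luminescence after 1 h at ambient temperature. Dopamine 57 uM final (EC100) as control.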
D2 PAM: Beta-Arrestin HTS for Positive Allosteric Modulators of the Human D2 Dopamine Receptor: Potentiators; D(2) dopamine receptor (Homo sapiens), P14416; DiscoveRx D2 beta-arrestin cells, luminescence, 90 min; 100% = 57 uM dopamine signal; potentiation, % (no concentration beside the values); actives 0.23% (n = 360,000); AID 624464, 2012; active = potentiation of 50% or more; inconclusive = 30% to 50%; inactive = 30% or less;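 also: compound concentration not given in the record; tested on top of an EC20 dose of dopamine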
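PathHunter beta-arrestin assay in DiscoveRx D2 cells. Compounds were added with an EC20 of dopamine (50 nM final) for 90 min at 37 deg C. Luminescence was read 1 h after detection reagent, with 57 uM dopamine as the EC100 control.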
Six1-Eya2 blk: qHTS Assay for Inhibitors of the Six1/Eya2 Interaction | actives 0.56% (n = 360,000) | Homeobox protein SIX1 (Homo sapiens) + Protein phosphatase EYA2 (Homo sapiens), … | activity change, % (test concentration not listed) | AlphaScreen GST-Six1/His-Eya2 binding, biochemical; stronger effect = lower value; control for the full effect not named in the record | AID 651725, 2012; in the data active = activity change below about -65%; inconclusive = about -30% to -65%; inactive = above about -30%; also: % is scaled to controls: 0 for no effect and ±100 for the full control effect; compound concentration not given in the record
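Homogeneous AlphaScreen proximity assay pairing GST-Six1 with His-tagged Eya2 (added as 5X mix: 250 nM and 500 nM) in 50 mM Tris pH 8.0, 300 mM NaCl, 1 mM TCEP. Glutathione donor and nickel acceptor beads; 1 h, 37 °C, dark.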
TRPML1 agonist: qHTS for Agonists of the Human Mucolipin Transient Receptor Potential 1 (TRPML1); activation, % (no concentration beside the values); TRPML1-expressing cells, Ca2+ dye fluorescence, FDSS; host cell line not named in the record; reference of the full effect not given here; AID 624414, 2012; actives 0.12% (n = 410,000); Mucolipin-1 (Homo sapiens), Q9GZU1; in the data active = activation above about 50%; inconclusive = about 30% to 50%; inactive = below about 30%; also: 0% is about no effect; the text of the record puts the active cut at 80%
Target sequence (Q9GZU1 whole entry, looked up): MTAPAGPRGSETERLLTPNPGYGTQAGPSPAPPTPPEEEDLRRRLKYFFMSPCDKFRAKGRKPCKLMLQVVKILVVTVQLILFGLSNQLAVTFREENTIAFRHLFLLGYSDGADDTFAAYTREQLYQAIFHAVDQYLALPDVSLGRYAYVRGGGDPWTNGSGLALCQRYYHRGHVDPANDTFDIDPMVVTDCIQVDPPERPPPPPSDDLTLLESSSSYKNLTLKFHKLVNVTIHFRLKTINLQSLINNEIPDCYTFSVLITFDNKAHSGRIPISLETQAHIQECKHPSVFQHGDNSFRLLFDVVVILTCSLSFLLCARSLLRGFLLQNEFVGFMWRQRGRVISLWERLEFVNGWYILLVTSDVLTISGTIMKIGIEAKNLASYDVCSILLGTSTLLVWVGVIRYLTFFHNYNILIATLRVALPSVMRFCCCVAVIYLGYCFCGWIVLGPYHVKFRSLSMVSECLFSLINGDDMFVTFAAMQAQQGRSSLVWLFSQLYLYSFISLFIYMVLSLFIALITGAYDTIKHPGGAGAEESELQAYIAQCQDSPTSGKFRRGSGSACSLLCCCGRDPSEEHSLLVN
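Tet-induced TRPML1-DL cells, 1,500 per well, cultured overnight, were loaded with a no-wash Ca2+ dye for 45–90 min. Calcium fluorescence was recorded on the FDSS for 110 s after compound addition, before the EC80 agonist (4 uM 54-4) was added.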
PINK1 expr mod: A Quantitative High throughput Screen to Identify Chemical Modulators of PINK1 Expression; PINK1 immunofluorescence, high-content cytometry, 24 h; Potency, µM (highest dose often 76.6 µM), for inactives: top-dose activation (PINK1 increase), actives largely listed as activators; actives 0.2% (n = 410,000); active = well fitted activation curve with a large enough effect; inconclusive = small, poorly fitted or top-dose-only effect; inactive = flat fitted curve, though single readings scatter; cell line not stated here;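 also: potency is read from the fitted curve at half-maximal effect; % of control where 0% means no effect; nearly all actives have a fitted effect of over 65% in size; a mitochondrial uncoupler was the plate control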
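PINK1 protein, normally rapidly degraded, was detected by immunofluorescence after 24 hour compound treatment of a stable cell line. Titration data (5 concentrations) came from laser-scanning cytometry, with CCCP-treated wells as controls.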
TRPML1 inh: qHTS for Inhibitors of the Human Mucolipin Transient Receptor Potential 1 (TRPML1) | activity change, negative = inhibition, % (concentration not given with the values) | Mucolipin-1 (Homo sapiens), Q9GZU1 | AID 624415, 2012 | TRPML1-inducible cells, Ca2+ dye fluorescence, FDSS; stronger effect = lower value; inhibition of EC80 agonist-evoked calcium signal | actives 0.02% (n = 390,000); in the data active means activity change below about -50%; inconclusive means about -30% to -50%; inactive means above about -30%;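 also: stimulus is agonist 54-4 at its EC80 concentration; % is scaled to controls: 0 for no effect and ±100 for the full control effect; compound concentration not given in the record; the text of the record puts the active cut at -80%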
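Calcium fluorescence in TRPML1-DL cells induced overnight with Tet: a 110 s read after compound pin addition, then a 110 s antagonist read after challenge with 54-4 at 4 uM final (EC80).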
* hit, by the source's call; ? = inconclusive; · = not tested or not shown; & = joins results of further samples; [ ] = another dose, or the depositor's remark.

item | Structure | D2 PAM | Six1-Eya2 blk | TRPML1 inh | D2 agonist | TRPML1 agonist | PINK1 expr mod
1 | CN1CCN(CCCNC(=O)c2ccc(/C=C3\Oc4ccccc4N(Cc4ccc(Cl)cc4)C3=O)cc2)CC1 | -12 | 23 | -11 | -7.9 | 1.2 | -2.4%
2 | C[C@H](NC(=O)c1[nH]cnc1C(=O)Nc1ccc(Cl)cc1)C(=O)OC(C)(C)C | -12 | 3 | -16 | -2.8 | -0.6 | 2.3%
3 | CC(=O)c1ccc(NC(=O)CN2C(=O)c3cccnc3Sc3ccccc32)cc1 | · | · | 17 | · | 0.3 | 3.7%
4 | O=C(NNS(=O)(=O)c1ccccc1F)c1ccccc1-n1cccc1 | -9 | -8 | 2 | -7.8 | -0.1 | 0.9%
5 | NC(=O)c1ccccc1NC(=O)Cc1cccs1 | 0 | 3 | -3 | -0.5 | -0.2 | 0.2%
6 | CCn1nc(C)c(/C=C/C(=O)Nc2ccc(C)cc2C)c1C | -7 | -4 | 0 | -4.4 | -0.4 | 2.5%
7 | CN(Cc1c(O)ccc2c1oc(=O)c1ccccc12)C1CCCCC1 | -30 | -1 | -10 | -6.3 | 3.6 | 0.0%[38.3 µM]
8 | COc1cc2c(cc1OC)C(COc1cc(C)cc(C)c1)N(C(=O)c1ccc(S(=O)(=O)N3CCCC3)cc1)CC2 (stereo unspecified) | · | · | 1 | · | 1.7 | -4.8%
9 | O=C(CSc1nc(O)cc(=O)n1-c1ccccc1)Nc1ccc2c3c(cccc13)CC2 | 5 | -3 | 2 | -0.2 | 0.1 | 5.1%
10 | Cc1cc(OCc2cc(C(=O)N(C)C(C)c3ccccn3)no2)cc(C)c1Cl (stereo unspecified) | -10 | 0 | 29 | 7.3 | 2.2 | 1.9%
11 | Cc1ccc(OCC(=O)Nc2ccc3oc(=O)ccc3c2)c(C)c1 | -8 | -10 | 52 | -2.0 | -0.3 | 6.7%
12 | COc1cc(NC(=O)CSc2nncn2C)cc(OC)c1OC | -2 | 3 | 3 | -5.3 | -0.3 | 2.8%
13 | COc1ccc(OCCCCOc2ccccc2Cl)cc1 | -7 | 63 | -12 | -2.8 | 3.2 | ·
14 | N#Cc1ccc(Oc2ccc(-c3nc4ccccc4nc3-c3ccccc3)cc2)cc1C#N | 1 | 2 | 3 | -2.1 | 0.5 | 6.8%
15 | CSC(=NCCCN1CCOCC1)NS(=O)(=O)c1cccs1 | -8&-18 | 4&0 | 3&9 | 1.1&-1.9 | 0.3&-0.2 | -1.1%&-0.7%
16 | O=C(Nc1nc(-c2ccccn2)cs1)C12CC3CC(CC(O)(C3)C1)C2 | -7 | ? | -10 | -1.8 | -0.1 | 0.5%
17 | CN(Cc1ccco1)C(=O)Cn1ncc2c([nH]c3ccccc32)c1=O | -4 | -2 | 30 | -4.9 | 0.1 | -0.6%
18 | CC[C@H](C)[C@@H]1NC(=O)c2cc([N+](=O)[O-])cc(I)c2NCC[C@@H](C(N)=O)NC(=O)[C@H](CCCN=C(N)N)NC1=O | -9 | 0 | 7 | -1.9 | 0.0 | 1.8%
19 | COc1cc(OC)cc(C(=O)Nc2ccc(S(=O)(=O)Nc3onc(C)c3C)cc2)c1 | · | · | -13 | · | 0.5 | -4.5%
20 | COc1cc(NC(=S)NC(=O)c2cccs2)ccc1NC(=O)C(C)C | -5 | -5 | -24 | -0.9 | 0.5 | -2.6%
21 | O=C(c1ccc(F)cc1)N1CCN2C(=O)c3ccccc3C12c1ccccc1 (stereo unspecified) | -3 | 4 | 16 | -0.7 | -0.8 | -0.3%
22 | Cc1onc(-c2c(F)cccc2Cl)c1C(=O)OCC(=O)NCc1ccccc1 | -8 | -2 | 4 | -1.1 | 0.7 | 3.3%
23 | O=C(CC(Sc1ccccc1)c1cccs1)c1ccco1 (stereo unspecified) | -2 | 7 | 35 | -3.8 | 0.1 | ·
24 | CCN1CCN(C(c2ccccc2Cl)c2sc3nc(-c4ccco4)nn3c2O)CC1 (stereo unspecified) | · | · | -3 | · | 0.1 | 3.1%
25 | O=C(Nc1ccccc1)c1ccc(CSc2ccccn2)cc1 | -19 | -2 | 29 | 4.1 | 1.6 | 0.8%
26 | Cc1ccc(C2C(C#N)=C(N)Oc3n[nH]c(-c4cccnc4)c32)o1 (stereo unspecified) | -10 | -5 | -20 | 1.0 | 0.7 | -1.2%
27 | C=C(C)c1cccc(C(C)(C)NC(=O)Nc2ccc3[nH]c(=O)[nH]c3c2)c1 | 7 | -12 | 0 | -2.5 | -0.8 | 4.0%
28 | Cc1cc(NC(=O)NN2CCOCC2)nn1-c1c(Cl)cccc1Cl | -4 | 0 | 15 | -9.9 | 0.5 | -0.7%
29 | Cc1ccc(S(=O)(=O)N(C)C)cc1NC(=O)COC(=O)C1CC1 | -15 | 13 | -9 | -1.9 | 0.3 | -0.6%
30 | CC(C)(C)CC(C)(C)NC(=O)CSCC(=O)Nc1ccc2ccccc2c1 | -2 | -5 | 48 | -0.2 | 2.4 | -1.2%[38.3 µM]
31 | CC(O)CNc1cc(N)c([N+](=O)[O-])cc1[N+](=O)[O-] (stereo unspecified) | -10 | 1 | -17 | -2.0 | 0.1 | 0.0%
32 | COC(=O)c1c(NC(=O)c2ccoc2C)sc2c1CCC2 | 4 | -1 | 11 | -1.5 | 0.6 | 4.8%
33 | CCCCC(NC(=O)Cc1c(C)c2cc3c(C)c(C)oc3c(C)c2oc1=O)C(=O)O (stereo unspecified) | -4 | -20 | -12 | -1.0 | 1.8 | -1.7%
34 | Cc1ccc(NC(=O)C2(C)CCN2Cc2ccccc2OC(F)F)cc1 (stereo unspecified) | -18 | 10 | · | -3.6 | 0.4 | 21%
35 | CCOC(=O)C1=C(CN2CCCCCC2)NC(=O)NC1c1ccc2c(c1)OCO2 (stereo unspecified) | 1 | -4 | 39 | -8.0 | -0.1 | -0.9%
36 | O=C(NCC(=O)N(Cc1ccco1)C(C(=O)NC1CCCC1)c1cccnc1)c1cccs1 (stereo unspecified) | 3 | 5 | -9 | -3.8 | -1.1 | 1.9%
37 | CC(=O)c1cccc(NC(=O)NCc2cccs2)c1 | -7 | 2 | 5 | -1.4 | -0.6 | 14%[38.3 µM]
38 | CCN(CC)Cc1c(O)ccc2c(=O)c(Oc3ccccc3OC)c(C)oc12 | -6 | 2 | · | -5.2 | · | 0.4%
39 | CCOC(=O)c1c(C)n(O)c2ccc(Cl)cc2c1=O | -10 | 0 | -18 | -1.7 | 2.7 | -0.9%
40 | CCc1ccc(NC(=O)CSc2nc3ccsc3c(=O)n2C(C)CC)cc1 (stereo unspecified) | · | · | ? | · | 25 | 2.6%
41 | COc1ccc(/C=N/NC(=O)c2ccccc2O)cc1CN1CCOCC1 | -9 | -13 | -3 | -5.4 | -0.4 | 0.1%
42 | CCCc1nnc(SCC(=O)N2C(C)CCCC2C)n1CC (stereo unspecified) | -8 | 1 | 4 | 2.6 | 0.1 | 1.2%
43 | CCOC(=O)c1ccc(NC2=CC(c3ccc(F)cc3)N(c3ccc(C(=O)OCC)cc3)C2=O)cc1 (stereo unspecified) | · | · | 9 | · | -0.3 | 1.0%
44 | O=C1C2C3C=CC(CC3)C2C(=O)N1/N=C/c1ccccc1O (stereo unspecified) | -10 | 4 | -6 | 3.2 | 0.5 | 2.9%[38.3 µM]
45 | CN1CCN(c2ccccc2NC(=O)c2ccc(-c3ccc(Br)cc3)o2)CC1 | 0 | -2 | 23 | 3.0 | -0.8 | 2.3%
46 | Cn1c(N)c(C(=O)COC(=O)Cn2cc(C(F)(F)F)ccc2=O)c(=O)n(C)c1=O | 11 | -3 | 4 | -0.3 | -0.4 | 0.3%
47 | Cc1[nH]c(C(=O)O)c(C)c1C(=O)OC(C)C | 2 | 1 | 44 | 0.7 | -0.5 | 0.2%
48 | CN(CC(=O)Nc1cccc(F)c1)C(=O)CSc1ccc(Br)cc1 | 0 | 2 | -10 | -4.8 | 1.2 | 3.2%
49 | Cc1cc(N=CC2=C(O)CCCC2=O)no1 | 0 | -1 | 8 | 0.2 | 2.4 | 0.4%
50 | Cc1ccc(Cl)cc1N1CCN(C(=O)c2ccc(CS(=O)(=O)c3ccc(Br)cc3)o2)CC1 | · | · | -17 | · | 1.4 | 1.7%
51 | O=C(Cn1cc(SCc2ccccc2Cl)c2ccccc21)N1CCOCC1 | 9 | -4 | 16 | 1.0 | 1.5 | 4.5%
52 | O=C(NCc1ccc(F)c(F)c1)C1CCC(=O)N(CCc2ccccc2)C1 (stereo unspecified) | -5 | 2 | -13 | ? | 0.1 | 2.6%
53 | COc1ccc(C(=O)CCc2nc3ccccc3s2)cc1 | -16 | 16 | -12 | -3.6 | 0.1 | 3.5%
54 | O=C(COC(=O)/C=C/c1cccc(C(F)(F)F)c1)NCc1ccco1 | -9 | 7 | 14 | 0.4 | 0.1 | 4.3%
55 | CN(C)CC(O)COc1cccc(OCC(O)CN(C)C)c1 (stereo unspecified) | -4 | -3 | -11 | -3.1 | 1.3 | -0.3%
56 | Cc1ccc(-c2ccc(S(=O)(=O)N3CC(C)OC(C)C3)cc2)cc1 (stereo unspecified) | 8 | 5 | -14 | 2.4 | 0.3 | 1.8%
57 | Cc1cccc(C(CC(=O)NCC2(c3ccccc3)CCCC2)c2ccccc2)c1O (stereo unspecified) | · | · | -18 | · | 2.9 | ?
58 | Cc1ccc(-n2nc(C)c(C(=O)O)c2-n2cccc2)cc1 | · | · | -7 | · | -0.1 | 0.4%
59 | O=C(OCC(=O)N1CCCC1)c1ccccc1O | -2 | -3 | 13 | -1.5 | -0.2 | -1.5%
60 | CC(=O)c1ccc(NC(=O)CC2Sc3ccccc3NC2=O)cc1 (stereo unspecified) | · | · | 2 | · | 0.2 | 4.0%

New compounds follow.
item | Structure | D2 PAM | Six1-Eya2 blk | TRPML1 inh | D2 agonist | TRPML1 agonist | PINK1 expr mod
61 | Cc1noc(NS(=O)(=O)c2ccc(NC(=O)CSc3n[nH]c(-c4ccccc4)n3)cc2)c1C | 4 | -18 | 10 | -2.8 | -0.2 | -0.6%
62 | COc1ccc(Nc2nc(-c3ccc(OC)cc3)cs2)cc1 | -6 | -9 | 10 | -3.9 | -0.4 | 1.4%
63 | O=C(CCc1c[nH]c2ccccc12)NCC1CCCO1 (stereo unspecified) | 12 | 8 | 12 | 0.0 | 0.0 | 1.3%
64 | O=C1S/C(=C\c2ccc(N3CCOCC3)o2)C(=O)N1Cc1c(F)cccc1Cl | 11 | -2 | -22 | 4.3 | 2.4 | ?
